# High-throughput results as filed in PubChem.
# 2A StopGo = lowers the luciferase signal of an FMDV 2A StopGo reporter; human cells with a luciferase reporter of 2A StopGo recoding; control for the full effect not named in the record; Potency, µM (titrated, usually from 57.9 µM), without a hit: at the top dose signal change, negative = less light; 410,000 tested, 1.2% active; AID 1159524; active = well fitted falling curve with a large enough effect; inconclusive = small, poorly fitted or top-dose-only effect; inactive = no such curve, though single readings can be large or run the other way; tested in HEK293T cells; further: on the % scale 0 is the no-effect control and ±100 the full control effect; nearly all actives have a fitted effect of over 45% in size; luciferase light after 4 h
# RE007 growth inh = less growth of the S. pombe RE007 Vpr strain. Potency, µM (highest dose often 92.2 µM), for inactives: at the highest dose activity change, negative = less growth. AID 651644. S. pombe RE007 Vpr strain, BacTiter-Glo ATP luminescence, 24 h; control for the full effect not named in the record. 360,000 tested, 0.21% active; active = well fitted falling curve with a large enough effect; inconclusive = small, poorly fitted or top-dose-only effect; inactive = no such curve, though single readings can be large or run the other way;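 further: on the % scale 0 is the no-effect control and ±100 the full control effect; nearly all actives have a fitted effect of over 50% in size; the assay follows cell death caused by Vpr and the record does not say whether a fall means rescue or toxicity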
#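 Fission yeast strain RE007, carrying one chromosomally integrated HIV-1 vpr copy, was seeded at OD 0.01 in PMG+AL medium with 23 nL pinned compound. After 24 h at 30 °C and 99% humidity, viability was read by BacTiter-Glo luminescence.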
# Lassa entry inh = blocks Lassa virus binding to or entry into cells. 300,000 tested, 1.2% active. AID 540256. Potency, µM (titrated, usually from 37.9 µM), without a hit: at the highest dose activity change, negative = inhibition, most hits filed as inhibitors. Lassa virus pseudotype entry inhibition, cell reporter; control for the full effect not named in the record; active means well fitted inhibition curve with a large enough effect; inconclusive means small, poorly fitted or top-dose-only effect, or effect the other way; inactive means flat fitted curve, though single readings scatter; tested in HEK293 cells; further: on the % scale 0 is the no-effect control and ±100 the full control effect; nearly all actives have a fitted effect of over 50% in size; luciferase read-out
# SARS PLP yeast = blocks SARS-CoV papain-like protease in a yeast assay. S. cerevisiae expressing SARS-CoV PLpro, growth rescue; control for the full effect not named in the record. Potency, µM (top dose mostly 32.9 µM), for the others: at the top dose activity, positive = growth rescue. 330,000 tested, 0.19% active. AID 485353; further: 0% is about no effect; nearly all actives have a fitted effect of over 55% in size; growth read by luminescence after 48 h
# Cruzain Triton = cruzain (T. cruzi) inhibition with detergent. purified cruzain, Z-FR-AMC fluorescence, 0.01% Triton. Potency, µM, for inactives: max response, negative = inhibition, usual class: inhibitors. 200,000 tested, 0.43% active. AID 1478; active means well fitted curve in the direction sought with a large enough effect; inconclusive means small, poorly fitted or top-dose-only effect, or another doubt; inactive means no such curve, though single readings can be large; an effect the other way counts as inactive or inconclusive;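 further: plate controls were neutral wells for no effect and buffer without enzyme for full effect; nearly all actives have a fitted effect of over 40% in size; top concentration of the series not given in the record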
# Target sequence (P25779 123-467 limits assumed): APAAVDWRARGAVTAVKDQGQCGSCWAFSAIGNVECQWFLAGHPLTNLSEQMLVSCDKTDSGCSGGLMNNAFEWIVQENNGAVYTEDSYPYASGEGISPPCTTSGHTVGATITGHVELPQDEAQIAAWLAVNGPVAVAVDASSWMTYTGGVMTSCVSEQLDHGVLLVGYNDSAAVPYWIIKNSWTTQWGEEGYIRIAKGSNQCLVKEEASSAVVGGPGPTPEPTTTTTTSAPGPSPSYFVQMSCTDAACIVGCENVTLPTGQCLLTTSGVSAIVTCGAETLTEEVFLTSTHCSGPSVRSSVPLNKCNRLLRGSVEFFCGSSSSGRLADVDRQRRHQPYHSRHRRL
#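 Detergent-containing run (0.01% Triton X-100) in acetate buffer pH 5.5 with 5 mM DTT: enzyme at 1.5 nM final, 15 min compound preincubation at room temperature, then 2 uM Z-FR-AMC substrate. Activity taken as 60 s fluorescence increase at 360/450 nm.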
# NS1 function inh = inhibitors of influenza NS1 protein function; S. cerevisiae slowed by influenza A NS1, growth recovery by OD600; Potency, µM (doses to about 46.1 µM), for inactives: top-dose activity, positive = more growth; 270,000 tested, 0.4% active; AID 2326; further: actives are rising curves; nearly all actives have a fitted effect of over 50% in size
#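 Growth recovery, yeast-based: influenza A NS1 expressed in S. cerevisiae causes slow growth, and suppressors are detected by OD600. The parent strain without NS1 is used as positive control.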
# Marburg entry inh = inhibitors of Marburg virus binding or cell entry; Marburg virus pseudotyped entry inhibition, cell reporter; control for the full effect not named in the record; about a third of the inactives were read at about 46 µM; Potency, µM (doses to about 37.8 µM), for inactives: top-dose activity change, negative = inhibition, usual class: inhibitors; 300,000 tested, 1.8% active; active = well fitted inhibition curve with a large enough effect; inconclusive = small, poorly fitted or top-dose-only effect, or effect the other way; inactive = flat fitted curve, though single readings scatter; tested in HEK293 cells; about a fifth of its hits are not listed in these tables; further: on the % scale 0 is the no-effect control and ±100 the full control effect; luciferase read-out
# Cruzain inh noDet = blocks cruzain activity in detergent-free assay. purified cruzain, Z-FR-AMC fluorescence, no detergent. P25779. Potency, µM, inactives show max response, negative = inhibition, actives largely listed as inhibitors. AID 1476. 200,000 tested, 2.3% active; active means well fitted curve in the direction sought with a large enough effect; inconclusive means small, poorly fitted or top-dose-only effect, or another doubt; inactive means no such curve, though single readings can be large; an effect the other way counts as inactive or inconclusive;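 further: plate controls were enzyme without inhibitor for no effect and buffer without enzyme for full effect; nearly all actives have a fitted effect of over 40% in size; top concentration of the series not given in the record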
#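 Purified cruzain at 1.5 nM, pre-incubated 15 min with compound at room temperature in 100 mM sodium acetate pH 5.5, 5 mM DTT, 0.00005% Triton X-100. Reaction started with 2 uM Z-FR-AMC; AMC fluorescence increase over 60 s gives rate.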
# Numbers without * were called inactive; ? = inconclusive; · = not tested or not shown; & = joins results of further samples; [ ] = dose if it differs, or a comment. Unless noted, the call rests on the fitted dose curve; in most records, active means well fitted rising curve with a large enough effect; inconclusive means small, poorly fitted or top-dose-only effect; inactive means no such curve, though single readings can be large or run the other way. Potency means the concentration at half of the fitted maximal effect.
SMILES,2A StopGo,RE007 growth inh,Lassa entry inh,SARS PLP yeast,Cruzain Triton,NS1 function inh,Marburg entry inh,Cruzain inh noDet
O=C(CCCN1C(=O)S/C(=C\c2ccccc2)C1=O)NNC(=O)c1ccccc1O,?,3%,?,0%,·,·,1.8µM*,·
CCN1CCN(c2ncnc3c2cnn3-c2ccccc2)CC1,33%[activator],-5%,·,-6%,0.0%,-1%,·,0%
COc1ccc(CNC(=O)COC(=O)CCOc2ccc(C)cc2)cc1,-23%,4%,3%,-1%,·,·,20%,·
CCCCNC(=O)c1ccc2c(=O)n(CCCOCC)c(=S)[nH]c2c1,6%,3%[3.69 µM],2%,3%,2.2%,0%,8%,-9%
CCn1nc(C)c(CNC(=O)CCc2nnc(-c3ccc(C(C)=O)s3)o2)c1C,4%,1%,15%[46.1 µM],16%,·,-2%,2%[46.1 µM],·
Cc1cc2oc(=O)cc(CN(C)Cc3ccccc3Cl)c2cc1C,-12%,-4%,-4%[46.1 µM],-3%,·,-6%,?,·
Cc1cc(C(F)(F)F)nc(CCNCc2c(C(=O)N3CCCC3)nc3ccccn23)n1,-10%,3%,2%[46.1 µM],1%,·,0%,0%[46.1 µM],·
N#CCc1nc2n(n1)Cc1ccccc1-2,·,-3%,23%,-2%,6.8%,5%,0%,-11%
Cc1cc(C)cc(N(C(=O)c2csnn2)C(C(=O)NC2CCCC2)c2cccnc2)c1 (stereo not given),5%,-10%,15%,-1%,·,2%,7%[46.1 µM],·
CCCCC(c1nnnn1CS(=O)(=O)c1ccc(C)cc1)N1CCN(C)CC1 (stereo not given),4%,0%,·,-1%,·,4%,?,·
CCc1ccccc1NC(=O)CSc1nnc2ccc3ccccc3n12,-7%,·,-23%[46.1 µM],·,-2.9%,·,-18%[46.1 µM],-7%
O=C(Nc1nccs1)c1ccc(COc2ccc(F)cc2)o1,0%,11%,-1%,-2%,-6.8%,-5%,3%,-3%
Nn1c(SCC(=O)NC2CCCCCC2)nnc1C(F)(F)F,-18%,12%,-14%[46.1 µM],-18%,·,·,?,·
CCOC(=O)c1c(C)[nH]c(C)c1C(=O)COC(=O)c1cccc(S(=O)(=O)N(CC)CC)c1,-10%,-10%,22µM*,-8%,-3.1%,11%,-2%&-2%,?
Cc1cc(NC(=O)Nc2ccc(Cl)cc2)n(-c2ccccc2)n1,-10%,10%,-8%,3%,·,0%,-2%,·
COc1ccc(CCNC(=O)c2cc(-c3ccncc3)nc3c(Cl)cccc23)cc1OC,?,-1%,?,1%,·,-8%,?,·
CCN(CC)c1ccc(C(=O)N/N=C/c2ccc(N3CCOCC3)cc2)cc1,-2%,2%,2%,5%,·,·,-5%[46.1 µM],·
CC1CC(C)(C)N2C(=O)C(=C(C#N)C#N)c3cccc1c32 (stereo not given),?,0%,-15%,-4%,·,-5%,8%,·
Cc1ccccc1CSc1nnc(-c2ccccc2)c(=O)[nH]1,0%,1%,·,-4%,·,·,-1%[46.1 µM],·
O=C(COc1nsnc1N1CCOCC1)N1CCOCC1,-8%,7%,12%,-2%,4.7%,3%,1%,3%
CCOc1ccccc1CN1CCNC(=O)C1CC(=O)N(C)Cc1cnccn1 (stereo not given),-5%,-21%,2%,16%,·,-4%,10%,·
Cc1cc(=O)oc2cc(OC(C)C(=O)NC3CCN(Cc4ccccc4)CC3)ccc12 (stereo not given),-16%,-21%,·,-3%,·,-5%,·,·
CCC(Oc1ccccc1)C(=O)OCC(=O)N(CC)c1c(N)n(Cc2ccccc2)c(=O)[nH]c1=O (stereo not given),-24%,-20%,5%,-3%,·,·,-17%,·
CC(C)CNC(=O)CN(c1cccc(Cl)c1)S(C)(=O)=O,31%[activator],1%,16%[46.1 µM],0%,·,3%,2%[46.1 µM],·
CCC(=O)Nc1nnc(SCC(=O)Nc2ccc(F)cc2)s1,-16%,-5%,-2%,-2%,2.4%,4%,-5%,-2%
Cc1cc(C)c(C(=O)C(C)OC(=O)Cn2cnc3c2c(=O)n(C)c(=O)n3C)cc1C (stereo not given),-28%,-18%,11%,2%,·,·,13%[46.1 µM],·
CCC(Sc1nc(C)cc(C)n1)C(=O)Nc1cc(C)on1 (stereo not given),-6%,-3%,-3%[46.1 µM],1%,·,-5%,5%[46.1 µM],·
CC1=NN(c2ccccc2)C(=O)/C1=C\c1sccc1C,4%,-11%,-23%,-1%,·,-3%,0%[14.2 µM],·
OCCCNCc1ccc(-c2ccccc2)cc1,-11%,1%,1%,1%,·,3%,3%[46.1 µM],·
Cc1cccc(NC(=S)N(CCN(C)C)C(C)c2cccnc2)c1 (stereo not given),-3%,-12%,-11%,-2%,·,·,?,·
CC(C)Cc1nc(N2CCOCC2)c(C#N)c2c1COC(C)(C)C2,?,2%,-14%,-2%,-1.4%,-14%,?,14%
Oc1ccccc1C(=S)N1CCCCCC1,3%,19%,-7%,2%,-8.7%,-4%,1%,-23%
Cc1nc2ccccc2n1CC(=O)N/N=C\c1ccccn1,2%,4%,8%,5%,0.7%,10%,-6%,-2%
CCOC(=O)C(NC(=O)c1ccccc1)(Nc1nnc(C)s1)C(F)(F)F (stereo not given),-22%,11%,19%,13%,0.8%,2%,?,3%
CCOC(=O)c1c(NC(=O)Nc2ccc(F)cc2)sc(C(=O)N(C)C)c1C,-2%,·,19%[46.1 µM],·,-4.3%,·,28%[46.1 µM],2%
CC(C)Oc1ccc(C(=O)NCCc2csc(-c3cccc(F)c3)n2)cc1,-1%,·,8%[46.1 µM],·,-11%,·,·,?
CCc1c(C)sc(NC(=O)Cc2ccccc2OC)c1C(=O)N1CCOCC1,11%,2%,-3%[46.1 µM],2%,·,?,1%[46.1 µM],·
CCOC(=O)CN1N=C(/C=C/c2ccccc2)CCC1=O,-4%,0%,2%,·,·,·,8%,·
CCOC(=O)CC1=Nc2ccccc2NC(=O)C1,-5%,20%,-2%,11%,-2.8%,-3%,-23%,9%
CCC1=C(CC2NCCc3ccccc32)CC2c3cc(OC)c(OC)cc3CCN2C1 (stereo not given),?,1%,?,·,·,·,?,·
CC(=O)Oc1ccc2cc(-c3nc4ccccc4n3C)c(=O)oc2c1,·,8%,22%,-1%,-1.9%,-5%,3%,1%
COc1cccc(C(=O)NCc2ccc(-c3nc4ccccc4s3)cc2)c1,40%[activator],-10%,?,3%,-2.8%,5%,?,?
O=C1C(=O)N(CCCN2CCOCC2)C(c2ccc([N+](=O)[O-])cc2)/C1=C(\O)c1ccc2c(c1)OCCO2 (stereo not given),-12%,-4%,·,3%,·,-9%,·,·
Cc1cc(C(=O)CN2C(=O)C(=O)N(Cc3ccccc3)C2=O)c(C)n1-c1ccccc1F,-19%,24%,6%[46.1 µM],2%,·,1%,-5%[46.1 µM],·
O=[N+]([O-])c1cnc(Sc2ccncn2)s1,40µM*,1µM*,·,-6%,·,-71%,·,·
CCc1c(C(=O)NNC(=O)Nc2ccc3c(c2)OCO3)csc1C,36%[activator],14%,15%,-2%,·,-6%,26%,·
CCCCNC(=O)CCn1c(=O)c2ccccc2n(Cc2ccc(Cl)cc2)c1=O,-12%,-12%,-4%,3%,-1.8%,7%,-32%,-12%
CCc1cnc2c(c1SCC(=O)N1CCCCC1)c(=O)n(C)c(=O)n2C,3%,·,16%[46.1 µM],·,-2.5%,·,·,-6%
Cc1ccccc1NS(=O)(=O)c1ccc(OCC(=O)N2CCCCC2)cc1,-18%,9%,-15%,-1%,3.6%,7%,?,13%
[N-]=[N+]=CC(=O)CCCN1C(=O)c2ccccc2C1=O,-19%,0%,27%,2%,1.7%,3%,-12%,-6%
Cc1ccccc1CN1CCN(Cc2ccc3cccc(F)c3n2)CC1CCO (stereo not given),-14%,4%,4%[46.1 µM],0%,·,13%,?,·
O=C(c1ccccc1)c1nc[nH]c1C(=O)Nc1ccccn1,-23%,9%,-19%,-2%,-2.8%,-6%,0%,-3%
CNC(=O)/C(C#N)=C1/SC(Cc2ccc(F)cc2)C(=O)N1c1ccccc1 (stereo not given),-6%,6%,22%[46.1 µM],1%,·,4%,?,·
N[C@@H](Cc1ccc(O)cc1)c1nnc([C@H](CCC(=O)O)NC(=O)C2CCNCC2)o1,-22%,0%,·,0%,·,1%,·,·
COc1ccc(NC(=O)CSc2nnc(Cc3cccs3)n2-c2ccc(C)cc2)cc1,8%,6%,?,1%,-3.0%,-10%,-46%,0%
Cc1ccc(CNc2nc(C)nc3sc4c(c23)CCC4)cc1,?,-21%,41%[14.3 µM],-8%,-7.4%,-69%,?,-3%
CCCCN(C)CCC(=O)Nc1ccc(OC)cc1OC,13%,3%,6%,17%,-0.1%,12%,2%,1%
Cc1cccc(C)c1NC(=O)CN1C(=O)CCSc2ccc(S(=O)(=O)N3CCCC3)cc21,8%&-9%,-1%,-12%[46.1 µM],25%,0.3%,7%,·,-4%

# 4 compounds from above, reduced to NS1 function inh, Marburg entry inh and Cruzain inh noDet:
SMILES	NS1 function inh	Marburg entry inh	Cruzain inh noDet
CCc1cnc2c(c1SCC(=O)N1CCCCC1)c(=O)n(C)c(=O)n2C	·	·	-6%
Cc1ccccc1NS(=O)(=O)c1ccc(OCC(=O)N2CCCCC2)cc1	7%	?	13%
[N-]=[N+]=CC(=O)CCCN1C(=O)c2ccccc2C1=O	3%	-12%	-6%
Cc1ccccc1CN1CCN(Cc2ccc3cccc(F)c3n2)CC1CCO (stereo not given)	13%	?	·
